H5N1 antiviral: MDCK cell protection from H5N1 avian flu | cytopathic effect, luminescence, 72 h; stronger effect = higher value; no value below 0 was filed and about half of the inactive calls have no number; reference of the scale not given here | inhibition, % at 50 µM | actives 0.07% (n = 96,000); in the data active means inhibition above about 25%
Numbers without * were called inactive; i = inactive. A portion of the library; rates above refer to the full screens.

SMILES	H5N1 antiviral
O=C(CSc1ncn(-c2ccccc2)n1)Nc1ccc2c(c1)OCCO2	i
COc1c(F)c(F)c(C(=O)O)c(Nc2ccccc2C)c1F	0.2
O=C(NCc1cccs1)C1CCCN(S(=O)(=O)c2ccc(Br)s2)C1 (stereo unspecified)	0.4
CC(/C=C/c1ccco1)=N/NC(=O)c1ccccc1Cl	1.0
CC(C)(C)C1CCC(C(=O)Nc2ccccc2)CC1 (stereo unspecified)	2.9
N#C/C(=C\c1ccc(N2CCOCC2)o1)c1nc2ccccc2[nH]1	1.2
Cc1ccccc1NC(=O)c1ccc(NC(=O)c2ccco2)cc1	i
CC(Sc1ccc(Cl)cc1)C(=O)NCc1ccc2c(c1)OCO2 (stereo unspecified)	i
CSc1nc2ccc3nc(NC(=O)c4ccccc4)sc3c2s1	0.1
CCOc1ccc2[nH]c(=O)c(CN(CCO)C(=O)c3ccccc3F)cc2c1	1.2
CNC(=O)NC(=O)CSc1nc2cc(C(=O)OC)ccc2c(=O)n1-c1ccccc1	i
Cc1cc(C)nc(Nc2n[nH]c(COc3cccc4ccccc34)n2)n1	i
CCOC(=O)c1cn(-c2nc(-c3ccc(Cl)cc3)cs2)c2c(F)c(N3CC(C)OC(C)C3)c(F)cc2c1=O (stereo unspecified)	i
CN(/N=C/c1ccncc1)c1cnn(-c2ccc(F)c(Cl)c2)c(=O)c1Cl	0.5
Clc1ccc(OCCN2CCOCC2)cc1Cl	i
CCC(C)(C)n1nnnc1CN(Cc1cc2cc(OC)ccc2[nH]c1=O)C1CCCC1	0.5
O=C(O)CCC(=O)Nc1ccc(S(=O)(=O)N2CCCC2)cc1	i
CC1(C)CC(=O)C(C=NCCC2=CCCCC2)=C(O)C1	0.5
CC1(C)CC(CC(=O)NC(=S)Nc2ccc([N+](=O)[O-])cc2)C(=O)O1 (stereo unspecified)	1.9
COc1ccc(C(=O)Nc2ccccc2C(=O)NC(C)C)cc1OC	0.1
CSc1nc2ccc3nc(NC(=O)c4ccc(Cl)s4)sc3c2s1	1.9
O=C(c1cnn2cccnc12)N1CCN(Cc2ccc3c(c2)OCO3)CC1	0.9
Cc1noc(C)c1COC(=O)c1cc(F)c(F)cc1Cl	i
COc1ccc(-n2nc(C(=O)Nc3ccc4c(c3)OCO4)c3ccccc3c2=O)c(OC)c1	i
C/C(=N\O)C(=O)C(CN1CCCCC1)CN1CCCCC1	1.4
Cc1ccc(-c2nnn(CC(=O)N3CCCCC3)n2)c(-n2cnnn2)c1	i
Nc1nc2n(n1)C(c1ccc(F)cc1)CC(c1ccc(F)cc1)N2 (stereo unspecified)	i
O=C(Oc1ccccc1N1C(=O)CCC1=O)c1ccco1	0.5
O=C(O)CCCNc1cc(N2CCC3(CC2)OCCO3)c2noc3c2c1C(=O)c1ccccc1-3	0.7
Cc1cc(C)c(NC(=O)NC(=O)c2ccc(F)cc2)c(C)n1	0.6
Cc1sc2nc3n(c(=O)c2c1C)NC(=O)CC3	i
COc1ccc(S(=O)(=O)N(CC(=O)N/N=C/c2cccs2)c2cc(C)cc(C)c2)cc1OC	2.3
COc1cc(COc2ccc3c(C)c(Cc4ccccc4)c(=O)oc3c2C)cc(OC)c1OC	i
Cc1ccc2cc3cc(C(=O)N4CCCCCC4)oc3nc2c1	3.0
CC(=O)c1c(N=CN(C)C)nc(C)nc1-c1ccccc1	i
CCN(CC)S(=O)(=O)c1ccc(Cc2ncc(C(F)(F)F)cc2Cl)s1	2.5
CCc1nccn1S(=O)(=O)c1cc(C)c(OC)cc1C	0.7
Cc1ccc(-n2c(C)nn(-c3ncc(C(F)(F)F)cc3Cl)c2=O)cc1	i
Cc1ccc2cc(C(c3nnnn3C(C)(C)C)N3CCCCCC3)c(=O)[nH]c2c1 (stereo unspecified)	i
CC(C)OCCCNC(=O)CCc1nc(-c2ccccc2)no1	0.6
C=CCN1C(=O)C2C(C(=O)NC3CCCCC3)C3C=CC2(O3)C1C(=O)NC1CCCC1 (stereo unspecified)	0.3
Cc1cc(C)n(-c2cccc(Cl)c2)c(=O)c1C#N	i
COC(=O)/C=C1\C(=O)N(c2nc3ccccc3s2)C(=S)N1c1ccc(F)cc1	0.3
Cc1ccc(C(C(=O)NC2CCCCC2)N2CCN(C(=O)c3ccco3)CC2)cc1 (stereo unspecified)	0.4
COC(=O)c1[nH]c2ccccc2c1NC(=O)CNC1CCCCC1	i
N#C/C(=C(/O)CSc1ccccc1C(=O)O)c1nc2ccccc2s1	i
CC(=O)Nc1nc(-c2ccccc2)nc(-c2ccccc2OC(C)=O)n1	0.8
CN(C)c1ccc(C2N(c3ccc(F)cc3)C(=O)C3CCCN32)cc1 (stereo unspecified)	i
CC(=O)N1N=C(c2ccncc2)OC12CCCCC2	0.5
CCOc1ccccc1-c1nnc(SCC(=O)NC2CC3CCC2C3)n1CC (stereo unspecified)	i
Cc1cc(C)cc(NC(=O)c2nccnc2C(=O)O)c1	i
Cc1cccc(C(=O)NC(Oc2ccccc2)C(Cl)(Cl)Cl)c1 (stereo unspecified)	i
Cc1cc2oc(=O)cc(C)c2c(=O)o1	0.2
CCN(CC)S(=O)(=O)c1ccc(C(=O)NCc2n[nH]c(=S)n2Cc2ccccc2)cc1	0.7
CCOC(=O)c1c(N)sc(C(O)(C(F)(F)F)C(F)(F)F)c1-c1ccc(OC)cc1OC	1.2
c1ccc(-c2nc3nc4ccccc4nc3n2Cc2ccco2)cc1	0.9
CCN(CC)S(=O)(=O)c1ccc(NC(=O)COC(=O)c2ccc(Br)o2)cc1	i
N#Cc1cc2c(nc1SC1CCCCC1O)CCCC2 (stereo unspecified)	0.5
O=C(CSc1ccccn1)N1CCN(c2ccccc2)CC1	0.2
O=C(CC1CCCCC1)N1CCN(c2ccccn2)CC1	0.6

Shown as labelled records: part of the list above.
CCN(CC)S(=O)(=O)c1ccc(NC(=O)COC(=O)c2ccc(Br)o2)cc1
  H5N1 antiviral: i
CC(=O)N1N=C(c2ccncc2)OC12CCCCC2
  H5N1 antiviral: 0.5

Returning to the listing, repeating the 6 entries before the break.
SMILES	H5N1 antiviral
CCOC(=O)c1c(N)sc(C(O)(C(F)(F)F)C(F)(F)F)c1-c1ccc(OC)cc1OC	1.2
c1ccc(-c2nc3nc4ccccc4nc3n2Cc2ccco2)cc1	0.9
CCN(CC)S(=O)(=O)c1ccc(NC(=O)COC(=O)c2ccc(Br)o2)cc1	i
N#Cc1cc2c(nc1SC1CCCCC1O)CCCC2 (stereo unspecified)	0.5
O=C(CSc1ccccn1)N1CCN(c2ccccc2)CC1	0.2
O=C(CC1CCCCC1)N1CCN(c2ccccn2)CC1	0.6
O=C(Cn1cnc2ccccc21)OCC(=O)N1CCc2ccccc2C1	i
CN(C)CCOc1nc(-c2ccccc2)nc2c1oc1ccccc12	i
CN(C)CCCNC(=O)c1ccc(CN(c2ccccc2)S(C)(=O)=O)cc1	i
Cc1cnc(NC(=O)CSc2nc3ccccc3s2)s1	1.0
CC(=O)N1CCc2cc(S(=O)(=O)NC(C(=O)NC3CCCc4ccccc43)C(C)C)ccc21 (stereo unspecified)	i
FC(F)C(F)(F)C1=CC(c2cccs2)=NCCN1	i
O=C1CCC(=O)N1c1ccc(CSc2nc3ccccc3[nH]2)cc1	0.3
CCOC(=O)/C(=C\c1ccccc1)C(=O)c1cc(C(C)=O)c(Nc2ccccc2)s1	i
CC(C)(C)c1ccc(S(=O)(=O)N2CCCC2C(=O)NC2=NCCS2)cc1 (stereo unspecified)	i
CCCC(=O)CN1C(=O)C2(OCCO2)c2ccccc21	0.3
Cc1ccccc1NC(=S)NC1CC2CCC(C1)N2Cc1ccco1 (stereo unspecified)	i
O=C(COc1c(F)c(F)c(C(F)(F)F)c(F)c1F)Nc1ccc(N2CCOCC2)c(Cl)c1	i
O=C(CSc1nnc(C2CC2)n1Cc1ccccc1)c1cc2ccccc2o1	i
CC(C)(C)n1nc(-c2ccc(F)cc2)c2c(N)ncnc21	2.7
COC(=O)C1CCN(C(=O)Cc2ccc(C)cc2)CC1	0.1
CCS(=O)(=O)n1nc(-c2ccccc2)nc1SCc1ccccc1	0.3
CC1(C)Cc2c(sc3nn[nH]c(=O)c23)CO1	0.3
COc1ccc(C(CNC(=O)Cn2[nH]c(=O)c3ccccc3c2=O)N2CCCC2)cc1 (stereo unspecified)	0.1
O=C(c1ccco1)N1CCN(c2ncnc3c2[nH]c2ccc(Br)cc23)CC1	i
Cc1cc2cc(NC(=O)c3ccco3)ccc2[nH]1	2.2
CC(c1ccco1)N(C(=O)c1ccc(C#N)cc1)c1ccccn1 (stereo unspecified)	0.6
Cn1nnc(NC(=O)c2ccccc2F)n1	0.4
Cc1cccc(N2C(=O)CC(Sc3nc(-c4ccccc4)c4cc(Cl)ccc4n3)C2=O)c1 (stereo unspecified)	0.1
COc1ccc(NC2=Nc3cccc4cccc2c34)cc1OC	0.6
Cc1cccc(CCN(Cc2cc3cccc(C)c3[nH]c2=O)C(=O)N2CCOCC2)c1	i
c1ccc(CNc2cnccn2)cc1	i
Cn1c(=O)c2c(ncn2CC(N)=O)n(C)c1=O	0.2
COc1cc(NS(=O)(=O)c2ccc(F)cc2)c(OC)cc1NC(=O)C1CC1	i
CCCNC(=O)c1c(N)n(CC2CCCO2)c2nc3ccccc3nc12 (stereo unspecified)	i
Cc1cccn2c(=O)c(/C=C3\SC(=S)N(CC(C)C)C3=O)c(NCCCOC(C)C)nc12	0.1
COc1ccc2nc(SCC(=O)NC(C)C)[nH]c2c1	i
O=c1[nH]c2c(c(=O)n1C1CCCCC1)CCC2	i
CCOc1ccc(S(=O)(=O)N(CC(=O)N/N=C/c2cccs2)c2ccc(C)cc2)cc1	i
C=CCNC(=O)NC(=O)COC(=O)/C(C#N)=C/c1cc(C)n(CC(C)C)c1C	i
Oc1[nH]c2ccccc2c1N=Nc1ccc(C(F)(F)F)cn1	0.7
O=P(O)(CP(=O)(c1ccccc1)c1ccccc1)c1ccccc1	i
COc1ccc(S(=O)(=O)N(CCc2ccccc2)CC(=O)N2CCOCC2)cc1	2.1
CC(NC(=O)Cc1ccccc1)c1nc2ccccc2[nH]1 (stereo unspecified)	0.2
COC(=O)c1nc(NC(=O)c2ccccc2)n[nH]1	1.4
CCOc1ccc(OCc2ccc(C(=O)OCc3ccccn3)o2)cc1	i

Of the compounds above, these contain bromine.
SMILES	H5N1 antiviral
O=C(NCc1cccs1)C1CCCN(S(=O)(=O)c2ccc(Br)s2)C1 (stereo unspecified)	0.4
CCN(CC)S(=O)(=O)c1ccc(NC(=O)COC(=O)c2ccc(Br)o2)cc1	i
O=C(c1ccco1)N1CCN(c2ncnc3c2[nH]c2ccc(Br)cc23)CC1	i

Continuation:
SMILES	H5N1 antiviral
CC(C)c1ccc(/C=C/C(=O)Nc2nc3ccc([N+](=O)[O-])cc3s2)cc1	i
CC(=O)Nc1nc2n(n1)C(c1ccc(Cl)cc1)C=C(C)N2 (stereo unspecified)	i
CCCc1cc(=O)[nH]c(NCc2ccc(Cl)cc2)n1	i
CCN(CC)c1ccc(NC(=O)C2CCCN(S(=O)(=O)c3cccnc3)C2)c(C)c1 (stereo unspecified)	3.3
Clc1ccc2c(c1)CNc1c(ncnc1N1CCOCC1)O2	i
Cc1cc2ccccc2c(=O)n1CC(=O)NCC(=O)N(C)Cc1ccccc1	i
CCCCOC(=O)CSC1=C(C#N)C(c2ccc3c(c2)OCO3)CC(=O)N1 (stereo unspecified)	0.1
CCOc1ccc(S(=O)(=O)N(C)c2ccc(OCC(=O)OCc3c(C)noc3C)cc2)cc1	1.5
COc1ccc2c(c1)C(C)=CC(C)(C)N2C(=O)CNCc1ccc2c(c1)OCO2	i
N#Cc1nc(-c2ccc(OCc3ccccc3)cc2)oc1NCc1ccco1	i
CCOC(=O)/C(C#N)=C/c1ccc(OCC(=O)Nc2cc(C)ccc2C)c(OC)c1	0.4
CCOc1ccccc1OCC(O)CNC (stereo unspecified)	i
COc1ccccc1CNC(=O)Nc1cccs1	2.2
COCc1[nH]nc2c1C(c1ccccc1Cl)C(C#N)=C(N)O2 (stereo unspecified)	i
COCCN(C(=O)C(C)C)c1nnc(-c2ccc(C)cc2)s1	0.1
O=S(=O)(c1cccs1)n1nnc2ccccc21	0.1
CC(C)(C)OC(=O)N1CCC[C@H]1C(=O)NCC1CCC(C(=O)O)CC1 (stereo partly specified)	i
CCOc1cc2[nH]c(=S)n(CCCC(=O)N3CCC4(CC3)OCCO4)c(=O)c2cc1OCC	2.4
COC(=O)c1ccc(C(=O)Nc2ccc3nc(-c4cccnc4)[nH]c3c2)cc1	i
Cc1cccc(-c2nc(CSCC(=O)NCc3cccs3)c(C)o2)c1	i
c1ccc(-c2noc(-c3cccnc3)n2)nc1	i
COc1ccc(C2=NOC(C(=O)Nc3ccc(C(C)=O)cc3)C2)cc1OC (stereo unspecified)	1.5
Clc1ccc(CNCCC2=CCCCC2)cc1	0.4
Cc1ccc(C2C(C(=O)O)c3ccccc3C(=O)N2C)o1 (stereo unspecified)	0.5
Cc1cc(C)c2c(N)c(S(=O)c3ccc(C(C)(C)C)cc3)sc2n1 (stereo unspecified)	i
c1ccc(OCCn2cnc3ccccc32)cc1	i
COc1cccc(C2C(C(=O)c3cccs3)=C(O)C(=O)N2CCN(C)C)c1OC (stereo unspecified)	0.7
Nc1nnc(COc2ccc(Br)cc2Br)s1	i
COc1ccc(OC)c2c(N)c(C#N)c(C(F)(F)C(F)(F)F)nc12	i
CCC(=O)Oc1oc(-c2ccccc2)nc1C=Nc1ccccc1OC	i
COC(=O)c1sccc1-n1cccc1C(=O)N1CCOCC1	i
CCC(=O)N1CCN=C1SCc1ccccc1Cl	i
CCc1sc(N(C(=O)Cc2ccccc2)c2ccccc2)nc1-c1ccccc1	0.5
CCOc1ccc(CN(CCCl)CCCl)cc1C(=O)OC	i
O=S(=O)(CCSc1nc2ccccc2s1)c1nc2ccccc2s1	2.3
Cc1nn(CCc2n[nH]c(=S)n2C2CCCCC2)c(C)c1Br	i

5 entries picked at random from the list so far:
SMILES	H5N1 antiviral
COc1cccc(C2C(C(=O)c3cccs3)=C(O)C(=O)N2CCN(C)C)c1OC (stereo unspecified)	0.7
COc1ccc(C2=NOC(C(=O)Nc3ccc(C(C)=O)cc3)C2)cc1OC (stereo unspecified)	1.5
Cc1cc(C)c2c(N)c(S(=O)c3ccc(C(C)(C)C)cc3)sc2n1 (stereo unspecified)	i
CCOc1ccc(CN(CCCl)CCCl)cc1C(=O)OC	i
CCC(=O)N1CCN=C1SCc1ccccc1Cl	i
